# Mtb hypoxia rep: PubChem AID 1159583; M. tuberculosis hypoxia-regulated fluorescent reporter, fluorescence; fluorescence inhibition, % (concentration not given with the values); 300,000 compounds, 0.1% hits;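 active means 35 to 45% if threefold the growth effect, above 45% if 1.5-fold the growth effect; inactive means the rest, general growth blockers included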;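 further: wells of about 50 µL received 100 nL stock; 0% = vehicle wells and 100% = reference inhibitor wells; whole bacteria with a GFP reporter of the hypoxia response; strong numbers were not always called active; many hits fall short of the cut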
# Sa RN4220 lethal: growth inhibition of S. aureus RN4220, primary screen, OD600 | AID 1259311, 2017 | 330,000 compounds, 0.33% hits | 16 h | inhibition, % (concentration not given with the values);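 active means z-score of -3 or lower and OD600 up to 0.18 on both plates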;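 further: plate controls were untreated cells for no effect and reference antibiotic for full effect; stock transfer was 100 nL into about 80 µL; one replicate is shown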
# ugtP null kill: growth inhibition of ugtP-null S. aureus, primary screen, RN4220 ugtP deletion, OD600 | 330,000 compounds, 0.54% hits | 16 h; some inactives read as strong as hits | growth inhibition, % (concentration not given with the values);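 active means z-score under -3 and OD600 up to 0.15 on both plates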;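 further: plate controls were untreated wells for no effect and antibiotic for full effect; wells of about 80 µL received 100 nL stock; the first replicate is given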
# PrP UTR inh: inhibition of PrP 5' UTR reporter expression; cell-based PrP 5' UTR mRNA reporter, plate reader; inhibition, % (test concentration not listed); 340,000 compounds, 0.35% hits; AID 488862, 2010;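 active means every replicate at 50% or more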;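 further: 0 = median of the neutral control wells; tested in H4 reporter cells; numbers are from one replicate; inactives centre near -14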
# BJeLR viability: MLPCN primary cell-based screen for lethality selective to Ras in HRASV12 cells. BJeLR (HRASV12) viability, CellTiter-Glo ATP luminescence, 48 h; reference of the scale not given here. inhibition, % (test concentration not listed). 300,000 compounds, 0.17% hits;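 active means replicate mean above 50%; inconclusive means above 50% but judged a plate artefact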;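 further: 50 nL library stock added to about 25 µL; numbers are from one replicate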
# Bead autofluor: compound fluorescence in toxin protease inhibitor counterscreen | fluorescence intensity (test concentration not listed) | compound autofluorescence counterscreen, microsphere flow cytometry; stronger effect = higher value | AID 624483 | 360,000 compounds, 3.1% hits;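 active means at least 3 SD above the mean of all compounds, about 16000 in these data; inconclusive means too few beads counted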;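 further: 100 nL of 1 mM stock went into each well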
# Mtb hypoxia rep growth: second read-out of Mtb hypoxia rep, no call of its own (marks repeat the call); growth inhibition, %; measured here: M. tuberculosis growth (absorbance);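 0% = vehicle and 100% = reference antibiotic; read after six days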
# An asterisk follows results filed as active; ? = inconclusive; · = no result given. Outcome played no part in choosing rows (roughly 4% active in at least one column).
SMILES,Mtb hypoxia rep,Mtb hypoxia rep growth,Sa RN4220 lethal,ugtP null kill,PrP UTR inh,BJeLR viability,Bead autofluor
Cc1cccc(C)c1OCC(=O)N(Cc1ccco1)C1CCS(=O)(=O)C1 (stereo not drawn),-3,-1,2.4,-4,-14,0,5609
CCC(=O)c1ccc(OC(=O)N2CCOCC2)cc1,-7,-11,2.3,6,-15,-5,4006
COc1ccc(CNC(=O)c2ccc(=O)oc2)cc1OC,·,·,-1.0,3,2,2,4767
Clc1cnc(Oc2ccc(Oc3ncc(Cl)cc3Cl)cc2)c(Cl)c1,7,2,-0.5,42,-17,-3,9841
O=C1CC(c2ccc(F)c(Br)c2)C2=C(CCCC2=O)N1 (stereo not drawn),·,·,2.5,1,-18,1,2783
NNC(=O)c1sccc1OCc1ccc(F)cc1,0,-4,4.1,9,-9,13,?
O=C(c1sc2cc(Cl)ccc2c1Cl)N1CCN(CCc2ccccn2)CC1,15,8,2.3,3,-5,9,4604
CCN(CC)CCN(Cc1cc2cc3c(cc2[nH]c1=O)OCO3)C(=S)NCC1CCCO1 (stereo not drawn),6,4,6.3,2,-23,-1,4661
Nc1nc(Sc2ncccc2[N+](=O)[O-])n[nH]1,-12,4,3.1,10,-59,-13,·
CNC(=S)NN=Cc1cn(CCOc2ccccc2OC)c2ccccc12,-7,-7,20,11,·,·,·
COc1ccc(CCNC(=O)COC(=O)c2ccccc2NCCO)cc1OC,8,2,5.5,5,-6,-2,4390
CCC1CCC(C(=O)NC(CCSC)C(=O)NCCN(CC(C)C)CC(C)C)CC1 (stereo not drawn),0,14,-2.3,-5,-17,4,·
Cc1c(Cl)cccc1NC(=O)N1CCCC1,5,8,3.5,8,-10,-3,2212
Cc1ccc(C(=O)N2c3ccccc3N(Cc3ccccc3)C(=O)C2(C)C)cc1,2,6,-6.9,-2,-8,-8,7954
CCOC(=O)c1sc(Nc2nc3c(OC)cccc3s2)nc1C,-84,-20,-2.1,-5,-36,-8,4207
COC(=O)/C=C/c1sc2nc(C)cc(C)c2c1N=CN(C)C,7,1,5.8,2,-13,·,3598
CCN1CCN(S(=O)(=O)c2ccc(Cl)c(C(=O)Nc3cc(Cl)ccc3N3CCOCC3)c2)CC1,-4,0,1.0,4,-20,5,4706
Cc1ccc(C(=O)O)cc1Nc1ncnc2sc3c(c12)CCC3,13,2,7.7,1,-15,-6,5630
CCN1CCN(c2oc(-c3ccccc3C)nc2S(=O)(=O)c2ccccc2)CC1,7,0,2.2,8,-10,·,?
Cc1ccc(S(=O)(=O)NCCCCCC(=O)NC(C)(C)CO)cc1,-7,5,-1.5,-5,-20,-3,2658
CC(C)(C)NS(=O)(=O)c1ccc(CCC(=O)N2CCCC2)cc1,8,6,6.4,5,-17,15,3498
O=C(N[C@@H](Cc1ccccc1)C(=O)NC1CCCCC1)c1ccco1,10,6,4.8,1,-7,-3,·
CCOc1ccc(S(=O)(=O)Nc2cccc(C(=O)NCC(c3ccco3)N3CCCC3)c2)cc1 (stereo not drawn),8,10,5.0,8,-13,·,11005
O=C(Cc1cccs1)N1CCN=C1SCc1ccccc1F,0,17,3.6,-1,3,7,4354
Cc1ccccc1NC(=O)NC1CCCc2ccccc21 (stereo not drawn),5,-8,0.7,-2,-2,-4,5340
# (further entries)
SMILES,Mtb hypoxia rep,Mtb hypoxia rep growth,Sa RN4220 lethal,ugtP null kill,PrP UTR inh,BJeLR viability,Bead autofluor
O=C(COc1ccc2ccccc2c1)N1CCN(C2CCN(Cc3ccccc3)CC2)CC1,11,10,-0.8,-7,1,-4,9669
COc1ccc(CN2CCNC(=O)C2CC(=O)NC2CCCCCC2)cc1C (stereo not drawn),2,-2,2.2,9,-17,2,4721
C#CCOC(=O)C[N+](C)(C)CC=C,4,5,1.1,3,-7,4,2991
CCCn1c(SCC(=O)Nc2nc3c(s2)CCCC3)nc2c1c(=O)n(C)c(=O)n2C,16,11,5.9,-4,-6,2,23637*
Clc1ccccc1CONc1ncnc2nonc12,7,-2,0.6,-6,-30,13,1920
CCOC(=O)c1ccccc1Nc1cc(C)nc2nc(C)nn12,·,·,2.6,0,4,-2,4291
CC(=O)c1ccc(OCCCC(=O)NC2=NCCS2)cc1,7,5,5.8,-6,-32,6,23568*
N=c1sccn1CC(=O)Nc1cccc(S(N)(=O)=O)c1,14,-1,1.6,9,-19,4,4476
CCCSC1=C(C#N)C2(CCCCC2)C(C#N)=C(N)N1,2,7,7.7,7,-32,5,3552
Cc1nn(-c2ccc(F)cc2)c2sc(C(=O)N3CCCCCC3)cc12,8,10,3.9,-6,-53,-2,3283
CC(=NNC(=O)CCn1nnc2ccccc21)c1cccs1,4,9,1.3,1,·,·,·
O=c1c2sc(-c3ccccc3)cc2nc2n1CCC2,-7,-8,-0.3,-8,-20,2,3522
Cc1ccnc(NC(=O)CCC(=O)N(CC(=O)NCc2ccccc2)Cc2ccc(F)cc2)c1,5,12,0.4,9,-4,-4,4268
c1ccc2c(C[C@@H]3CNCCN3CC3CCCCC3)cccc2c1,·,·,·,·,-10,-1,4888
O=C(NCCc1ccccc1)C1CCCN(c2cnccn2)C1 (stereo not drawn),16,8,-0.3,6,-21,0,4823
Clc1cccc(-c2ccc(/C=N/n3cnnc3)o2)c1Cl,·,·,·,·,3,-6,3083
COc1ccccc1CNC(=O)[C@H](C)NC(=O)[C@@H]1Cc2ccccc2CN1,3,5,3.7,4,-6,-1,5378
O=C(CC12CC3CC(CC(C3)C1)C2)NCC(=O)N1CCc2ccccc2C1,·,·,0.4,4,-8,-3,4801
COc1cccc(NC(=O)CN(C)C(=O)C(C)Sc2ccccc2)c1 (stereo not drawn),7,-9,-0.1,6,-36,·,4954
C#CCOCCOCCOCCNc1nc(N2CCN(C(=O)[C@H]([C@@H](C)CC)n3cc([C@@H](N)CC(C)C)nn3)CC2)nc(N2CCN(C(=O)[C@H](Cc3ccc(O)cc3)n3cc([C@@H](N)C(C)CC)nn3)CC2)n1 (stereo partly drawn),·,·,·,·,-18,3,4576
C=CCNc1scc(-c2ccccc2)[n+]1CC=C,16,17,0.8,5,-3,12,4367
COc1ccc(C(=O)OCC(=O)NCC2CCCCC2)cc1F,-6,3,0.2,-2,-12,·,·
C#CCOCCOCCOCCNc1nc(N2CCN(C(=O)C(CCC(=O)O)n3cc(C(N)C(C)CC)nn3)CC2)nc(N2CCN(C(=O)C(C(C)CC)n3cc(C(N)CC(C)C)nn3)CC2)n1 (stereo not drawn),8,3,0.3,8,·,·,·
Cc1cc(NC(=O)CSc2nnc(-c3ccc(Br)o3)n2Cc2ccccc2)no1,6,11,17,-2,-9,-9,3391
Fc1ccc(-c2csc3ncnc(N4CCN(c5ccccc5)CC4)c23)cc1,8,0,3.2,32,6,-9,3052
# Other structures
SMILES,Mtb hypoxia rep,Mtb hypoxia rep growth,Sa RN4220 lethal,ugtP null kill,PrP UTR inh,BJeLR viability,Bead autofluor
COc1ccc(S(=O)(=O)N2CCC(C(=O)Nc3nnc(C)s3)CC2)cc1OC,1,5,2.5,14,-43,6,5110
O=C(c1cc2c(s1)CCCC2)N1CCN(S(=O)(=O)c2ccccc2C(F)(F)F)CC1,2,3,9.0,-2,3,13,2811
CCN(CC)c1nc(-c2ccccc2)ncc1S(=O)(=O)c1ccc(C)cc1,10,12,7.2,13,-19,9,4123
Cc1cccc(C(CC(=O)N2CCCCC2)c2ccccc2)c1O (stereo not drawn),6,2,3.2,1,-14,-5,4119
CCCCNC(=O)CSc1nc2ccccc2c(=O)n1CCNC(C)=O,13,7,4.1,-4,-24,-3,9968
O=C(Nc1ccc(F)cc1F)c1cccnc1,·,·,0.6,12,-10,-6,4076
CCOc1ccccc1CNS(=O)(=O)c1cc(-c2cc(C)no2)ccc1OC,7,6,6.8,15,-15,3,6097
C/C(=N/N1CCN(c2ccccn2)CC1)c1ccc([N+](=O)[O-])cc1,·,·,·,·,-22,11,9133
CCOc1ccc(C=NNC(=O)C(O)c2ccccc2)c(O)c1 (stereo not drawn),-6,9,2.0,-2,·,·,·
COc1ccc(CCNC(=O)CCCn2c(SCC#N)nc3ccccc3c2=O)cc1OC,-10,6,-4.9,-5,-10,-11,10903
c1ccc(-c2ncc3c(ccc4ccccc43)n2)cc1,19,6,-4.3,11,-6,-1,2619
Nc1nc2c(ncn2CCC(CO)CO)c(=O)[nH]1,-4,2,1.1,-3,·,-3,·
COc1ccc(NS(=O)(=O)c2cccc(C(=O)NCC(c3ccc(OC)cc3)N3CCOCC3)c2)cc1 (stereo not drawn),·,·,·,·,-21,8,?
COc1cc(/C=N/Nc2ccc(C(=O)O)cc2)cc(OC)c1OC,·,·,·,·,-47,-4,4353
O=C(CSc1ccc(-c2ccco2)nn1)NC1CCCCC1,7,-2,-0.8,4,-18,·,4493
CCOc1ccc(OCC)c(-c2c(=O)n(OCc3ccccc3C(=O)OC)c3ccccc3[n+]2[O-])c1,5,7,6.3,-6,-9,0,10956
CCn1cc(C(=O)Nc2ccc(-n3cnnn3)c(OC)c2)c(=O)c2ccc(C)nc21,8,5,5.3,4,·,-3,·
Cc1cc(NC(=O)CN2CCN(c3ncccn3)CC2)no1,6,4,0.7,13,-17,-2,7073
COc1ccc(N2CCN(CC(O)COc3ccc(F)cc3)CC2)cc1 (stereo not drawn),1,-7,0.6,2,-21,-7,4296
Cc1ccc(C(=O)NC2CC(C)(C)NC(C)(C)C2)c(C)c1,9,7,-12,2,-32,-1,2375
O=C(CNC(=O)c1cc2ccccc2o1)NCc1cccs1,·,·,-3.7,8,-22,·,2183
COc1ccc(C(C(=O)NCC2CCCO2)N(C(=O)CNC(=O)c2ccco2)c2cc(C)cc(C)c2)cc1OC (stereo not drawn),5,0,2.8,9,-21,5,3937
CCOc1ccc(N(CC(=O)N2CCN(C(=O)CN(c3ccc(OCC)cc3)S(C)(=O)=O)CC2)S(C)(=O)=O)cc1,-4,11,1.3,3,5,-8,·
COc1ccc(C(=O)N2CCC(n3c(C)nc4cc(F)ccc43)CC2)cc1OC,8,7,-0.9,3,-16,-6,4041
CCN(CC(=O)Nc1c(F)cccc1F)C(=O)c1ccc(=O)[nH]c1,5,4,0.8,-5,-17,-5,4682

# Random excerpt: 2 compounds from above, in no set order.
SMILES,Mtb hypoxia rep,Mtb hypoxia rep growth,Sa RN4220 lethal,ugtP null kill,PrP UTR inh,BJeLR viability,Bead autofluor
Nc1nc2c(ncn2CCC(CO)CO)c(=O)[nH]1,-4,2,1.1,-3,·,-3,·
COc1cc(/C=N/Nc2ccc(C(=O)O)cc2)cc(OC)c1OC,·,·,·,·,-47,-4,4353

# Four compounds already listed, sorted by SMILES length, ascending.
SMILES,Mtb hypoxia rep,Mtb hypoxia rep growth,Sa RN4220 lethal,ugtP null kill,PrP UTR inh,BJeLR viability,Bead autofluor
CCOc1ccccc1CNS(=O)(=O)c1cc(-c2cc(C)no2)ccc1OC,7,6,6.8,15,-15,3,6097
CCN(CC)c1nc(-c2ccccc2)ncc1S(=O)(=O)c1ccc(C)cc1,10,12,7.2,13,-19,9,4123
COc1ccc(CCNC(=O)CCCn2c(SCC#N)nc3ccccc3c2=O)cc1OC,-10,6,-4.9,-5,-10,-11,10903
CCOc1ccc(OCC)c(-c2c(=O)n(OCc3ccccc3C(=O)OC)c3ccccc3[n+]2[O-])c1,5,7,6.3,-6,-9,0,10956

# Later entries.
SMILES,Mtb hypoxia rep,Mtb hypoxia rep growth,Sa RN4220 lethal,ugtP null kill,PrP UTR inh,BJeLR viability,Bead autofluor
Cc1[nH]n(-c2ccccc2)c(=O)c1C(c1ccc([N+](=O)[O-])cc1)c1c(C)[nH]n(-c2ccccc2)c1=O,12,7,2.0,6,-21,2,2358
C1CCCC(N2CCNCC2)CC1,6,6,2.5,4,-4,6,8702
O=P(CCCCCCCCCP(=O)(c1ccccc1)c1ccccc1)(c1ccccc1)c1ccccc1,-1,2,5.1,-10,-9,2,4105
C=CCn1c(N)cc(=O)nc1SCC(=O)Nc1ccccc1,13,11,4.5,-1,-6,8,4570
OCCNc1nc(Nc2ccccc2O)nc(N2CCCC2)n1,4,10,9.8,3,-28,-1,4283
COCC1CCN(Cc2nc(Cc3ccccc3Cl)no2)CC1,5,4,4.2,6,-35,0,2735
Cc1cc(C)nc(NS(=O)(=O)c2ccc(NC(=O)c3ccc(O)cc3O)cc2)n1,6,1,2.3,5,-9,8,3577
CS(=O)(=O)N(CCc1ccccc1)CC(=O)N1CCN(Cc2ccc3c(c2)OCO3)CC1,16,18,3.6,7,3,0,3248
CC(=O)c1ccc2cccc3c2c1N=CN3C,-5,3,2.2,10,-10,-9,7628

# High-throughput results: PubChem BioAssay, several laboratories
